# Bioassay records (PubChem)
# MgrA-DNA mod: S. aureus MgrA activity modulators, primary screen, biochemical, S. aureus Newman, fluorescence polarization; 84,000 compounds, 0.13% hits; AID 602314, 2012; inhibition, %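 (about 10 µg/mL by stock and volumes)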; MgrA-DNA binding;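 active means above 50% in either of two replicates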;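 further: 0% = protein plus DNA without compound and 100% = DNA alone without protein; higher means less MgrA bound to DNA so lower polarization; one replicate is shown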
# S aureus helic: inhibitors of S. aureus replicative helicase, primary screen, biochemical, fluorescence unwinding readout. replicative DNA helicase (DnaC/DnaB), Staphylococcus aureus. purified S. aureus helicase, fluorescence unwinding assay; about half of the hits fall short of the stated cut. inhibition, %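 (tested at about 80 µM)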. 120,000 compounds, 0.05% hits;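 active means both duplicates at 50% or more, or one of them with a favoured structure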;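 further: 0% = mean of negative control wells and 100% = mean of positive control wells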
# Active calls of the source: *; x = not tested or not shown; & = joins results of further samples. A portion of the library; the hit share may differ from the screen's.
Structure | MgrA-DNA mod | S aureus helic
O=c1[nH]ncc(NCCCc2ccccc2)c1Cl | x | 6
CN1C(=O)N(C)C2C1N(C)S(=O)(=O)N2C (stereo not drawn) | 2.6 | 5
O=C(Nc1cccnc1N1CCOCC1)c1cc2ccccc2oc1=O | 0.2 | 19
CC(=O)Nc1ccc(C(=O)CSc2nnc(-c3ccoc3)c(-c3ccoc3)n2)cc1 | 44 | 7
O=C(CSC1CCCC1)N1CCCC1 | 2.8 | -22
O=C(O)CSc1nc2cc(N3CCOCC3)c(F)cc2[nH]1 | -4.6 | 6
COc1cc(OC)c(/C=C2/C(=O)Nc3ccccc32)c(OC)c1 | -1.8 | x
CC1C(O)=C(c2nc3ccccc3[nH]2)c2nc(=O)c3ccccc3n21 (stereo not drawn) | x | -46
COCc1cc(C)nc(OCC(=O)OC)c1C#N | x | 15
CCC1=Nc2cccc3cccc(c23)N1 | 1.3 | x
COc1ccc(C2N(c3ccccc3)OC(=O)N2c2ccccc2)cc1 (stereo not drawn) | 4.9 | 17
CCC(C)NC(=O)Cn1nc(-c2ccccc2)c2cc(Cl)ccc21 (stereo not drawn) | x | 8
CCOC(=O)c1ccc(-n2c(C)ccc2C)cc1 | -0.9 | x
O=C(CCCSc1nc(-c2ccco2)cc(C(F)(F)F)n1)NCC1CCCO1 (stereo not drawn) | 0.3 | 1
O=c1[nH]c2ccsc2c(=O)n1CCO | -1.2 | x
CCOC(=O)CSCCOc1ccc(/C=C2/C(=O)NC(=O)N(c3ccc(OC)cc3)C2=O)cc1OC | 1.0 | x
CCN1C(=O)/C(=C2\C=Cc3ccccc3N2CC)OC1=S | 2.2 | 4
COc1ccc(CCNC(=O)CC#N)cc1OC | -2.3 | 14
CC1C/C(=C\C=C\N(C)C)C(=O)/C(=C/C=C/N(C)C)C1 (stereo not drawn) | x | -106
COc1ccc(C2=NN(C(=O)CSCc3ccco3)C(c3cccc(OC)c3OC)C2)cc1 (stereo not drawn) | 3.0 | 10

# The final 6 compounds of the part above lead into the next.
Structure | MgrA-DNA mod | S aureus helic
O=c1[nH]c2ccsc2c(=O)n1CCO | -1.2 | x
CCOC(=O)CSCCOc1ccc(/C=C2/C(=O)NC(=O)N(c3ccc(OC)cc3)C2=O)cc1OC | 1.0 | x
CCN1C(=O)/C(=C2\C=Cc3ccccc3N2CC)OC1=S | 2.2 | 4
COc1ccc(CCNC(=O)CC#N)cc1OC | -2.3 | 14
CC1C/C(=C\C=C\N(C)C)C(=O)/C(=C/C=C/N(C)C)C1 (stereo not drawn) | x | -106
COc1ccc(C2=NN(C(=O)CSCc3ccco3)C(c3cccc(OC)c3OC)C2)cc1 (stereo not drawn) | 3.0 | 10
Cc1ccc(C(O)(C(F)(F)F)C(F)(F)F)o1 | 2.7 | 4
c1ccc(-c2nnc(CN3CCCCC3)o2)cc1 | x | 14
CCSC(=O)NCc1ccccc1 | -4.2 | x
C#CC(CC)(CC)NC(=O)Cc1n[nH]c(=O)c2ccccc12 | x | 5
CC1(C)CC(NC(=O)C23CCC(C)(C(=O)C2)C3(C)C)CC(C)(C)N1 (stereo not drawn) | 1.6 | -18
N#Cc1ccc(NC(=O)CCC2CCCC2)cc1 | 1.4 | 4
CCC(C)C1NC(=O)C(CCNCS(=O)(=O)O)NC(=O)C(NC(=O)C(CCNCS(=O)(=O)O)NC(=O)C(NC(=O)C(CCNCS(=O)(=O)O)NC(=O)CCCCC(C)C)C(C)O)CCNC(=O)C(C(C)O)NC(=O)C(CCNCS(=O)(=O)O)NC(=O)C(CCNCS(=O)(=O)O)NC(=O)C(C(C)CC)NC1=O (stereo not drawn) | 7.9 | x
Nc1ncnc2c1c(I)cn2C1OC(CO)C(O)C1O (stereo not drawn) | -1.0 | x
C#CCOc1cccc(CN(C)C(C)c2ccco2)c1 (stereo not drawn) | -2.5 | 2
Cc1ccc(-c2nc(CS(=O)(=O)CC(=O)N3CCc4ccccc43)c(C)o2)cc1 | x | -20
O=C(COC(=O)C1CC(=O)N(Cc2ccco2)C1)c1ccc2ccccc2c1 (stereo not drawn) | x | 12
O=S(=O)(Nn1cnnc1)c1ccccc1Cl | x | -13
Cc1ccc(C)n1C(CC(=O)O)c1ccc(F)cc1 (stereo not drawn) | 31 | x
CCCCn1c(=O)[nH][nH]c1=S | x | -7
Cc1cc(C)cc(NS(=O)(=O)CC23CCC(CC2=O)C3(C)C)c1 (stereo not drawn) | 0.6 | -16
O=C(Nc1ccccc1OC(F)F)C1=NN(c2nc3ccccc3[nH]2)C(=O)CC1 | x | -89
COc1ccc(-c2nc(C#N)c(N3CC(C)CC(C)C3)o2)cc1 (stereo not drawn) | 1.6 | -6
O=C(Cn1c(-c2cccs2)cc2ccccc21)N1CCN(c2ccccc2)CC1 | x | 24
CCNC(=S)N1CCN(CC)CC1 | -2.2 | 8
CCOc1ccc(-n2cc(C(=O)NC(C)c3cccs3)nn2)cc1 (stereo not drawn) | x | -17
CC(=O)Nc1nc(N(C)C)nc(N(C)C)n1 | -1.6 | 16
CC(Nc1nc2ccccc2s1)C(=O)O (stereo not drawn) | x | -14
Cc1nc(N)sc1-c1nnc(Nc2ccccc2)s1 | x | -15
O=C1CSC2=NCN(c3ccccc3)CN12 | -2.9 | 14
O=C(Nc1c(-c2ccccc2)nc2ccccn12)C1CCCCC1 | x | 19
CCn1c(CSc2ncccn2)nnc1SCC(=O)N1CCc2ccccc21 | 3.0 | 12
Clc1nnc(N/N=C/c2ccccc2)c2ccccc12 | 0.2 | x
CC(NC(=O)CC#N)c1ccccc1 (stereo not drawn) | 1.9 | -9
Cc1cc(N=CNOC(=O)c2nn(-c3ccccc3)nc2C)no1 | x | 6
O=C(O)CCNC(=O)c1ccc(NC(=O)Cc2ccc(Cl)cc2)cc1 | -1.4 | 9
CC(C)Sc1n[nH]c(=S)s1 | x | 13
O=C(Cc1ccc(Cl)cc1)Nc1ncn[nH]1 | x | 4
Cc1ccc(-n2nc(C)c(/C=N/NC(=O)Cc3csc(C)n3)c2Cl)cc1 | x | 7
c1ccc2[nH]c(SCCSc3nc4ccccc4[nH]3)nc2c1 | 1.7 | 3
Cc1cc(=O)oc2ccc(OC(=O)Cc3cccs3)cc12 | 5.6 | 7
Cc1cccc(-n2cnc3cc(C(=O)N4CCOCC4)ccc32)c1 | x | 11
Cc1onc(-c2c(Cl)cccc2Cl)c1C(=O)Nc1ccc(F)c(F)c1 | 0.4 | x
CCN1CCN(CCCNC(=O)c2ccc3c(c2)N(Cc2ccccc2)CCS3)CC1 | x | 4
O=C(CSc1cccc2cccnc12)NCc1ccccc1 | 10 | 15
O=C1SC(C2SC(=O)N(Cc3ccc(F)cc3)C2=O)C(=O)N1Cc1ccc(F)cc1 (stereo not drawn) | -1.0 | 8
CCN=C1NC(=NCC)c2ccccc21 | x | 5
O=C(NCc1ccccc1)c1ccc(C(=O)NCc2ccccc2)cc1 | x | -10
Cc1cccc(NS(=O)(=O)c2ccc(C(=O)NC3=NCCS3)cc2)c1C | x | 11
COC(=O)C1=C(C)Nc2c(c(=O)n(C)c(=O)n2C)C1c1ccc(Br)cc1 (stereo not drawn) | x | 8
COc1ccc2[nH]c(=O)c(CN(C(C)=O)c3cccc(C)c3)cc2c1 | -1.1 | 16
CSc1cccc(NC(=S)N(CCc2ccncc2)C(C)C)c1 | 0.4 | -19
C[C@H](NC(N)=O)C(=O)N1CCc2ccccc21 | x | -2
CCC(C)(C)C1CCc2oc3ccc(NS(=O)(=O)c4cccs4)cc3c2C1 (stereo not drawn) | 4.5 | 11
CCc1nc(SC)ncc1C(=O)NCc1ccc(OC)cc1 | x | -28
N#Cc1ccccc1COC(=O)CCC(=O)c1cccs1 | x | -7
CCc1nnc(NC(=O)COc2cc(C)c(Cl)c(C)c2)s1 | 0.2 | 9
Cc1ccc2[nH]c(=S)oc2c1 | x | -16
Cn1[nH]c(=O)c2c(C(F)(F)F)ccnc21 | 0.5 | x
O=C(CSc1nnc(-c2ccccc2)n1-c1ccccc1)NC1CC1 | 2.2 | 1
O=C(c1ccccc1)C12CC3CC(CC(C3)C1)C2 | x | 7
CC(C)N(Cc1ccc(N(C)C)cc1)C(=O)c1sc2ccccc2c1Cl | -0.5 | x
Cc1ccc(-c2cccc(-n3c(C)ccc3-c3cccc(N)c3)c2)o1 | 0.2 | 5
N#Cc1cccc(NC(=O)C(Cl)Cl)c1 | -0.4 | x
Cc1ccc(C2=NS(=O)(=O)N(C)C(C(=O)Nc3sc4c(c3C(N)=O)CCCC4)=C2)cc1 | 20 | -3
Cc1ccc(Nc2c(O)[nH]c(=O)n2N)cc1 | -3.0 | -9

# (continued)
Structure | MgrA-DNA mod | S aureus helic
O=c1[nH]cnc2c1cnn2-c1ccccc1 | 0.1 | 15&3
COc1ccc2c(COC(=O)c3ccc(C)c(S(=O)(=O)N4CCOCC4)c3)cc(=O)oc2c1 | x | 1
CC1CCN(c2ncnc3c2cnn3C)CC1 | x | 1
COc1ccc(OCC(=O)N2CCN(c3cccc(C(F)(F)F)c3)CC2)cc1 | x | 11
Oc1ccccc1CNC1CCN(Cc2ccccc2)CC1 | x | 3
C[N+]1(C)CCC(OC(=O)C(O)(c2ccccc2)C2CCCC2)C1 (stereo not drawn) | 1.2 | x
CCNc1c(NC(=O)Nc2ccc(CC)cc2)c(=O)oc2ccccc12 | x | -1
NNC(=O)c1nc(-c2ccccc2)n2c1CCCCC2 | x | 21
O=C(COC(=O)c1ccco1)NC1CC1 | 0.1 | 7
Cc1cc2oc(=O)cc(C)c2cc1N | x | -10
Cc1cc(NC(=O)c2ccc(=O)[nH]c2)ccc1Br | x | -5
CN(Cc1ccccc1)C(=O)CN1C(=O)c2ccccc2S1(=O)=O | 4.2 | -26
O=C(Cc1ccccc1)NC1CCCCC1NC(=O)Cc1ccccc1 (stereo not drawn) | -0.6 | -6
Cc1[nH]c(=O)[nH]c(=O)c1/C=N\NC(=O)c1cc2ccccc2o1 | 2.0 | -2
C=CCn1c(Cc2ccc(OC)c(Cl)c2)n[nH]c1=S | 12 | 4
O=C(NC1CCCCC1)c1cc(-c2ccc(Cl)cc2)n[nH]1 | x | -26
CCNc1nc(NC(C)C)nc(OCCNS(=O)(=O)c2ccc(C)cc2)n1 | 4.4 | x
Cc1cc(OCC(=O)NC2CCCCCC2)no1 | x | -21
COc1ccc(C(=O)CC(=O)c2ccccc2O)cc1 | -0.7 | 16
CCN1C(=O)S/C(=C\C(=O)O)C1=O | x | 8
C/C(=N\NC1=NCCCN1)c1ccccc1 | x | -5
CCC1CCCCN1C(=O)Cn1c(=O)n(-c2cc(F)ccc2F)c(=O)c2sccc21 (stereo not drawn) | 0.6 | 2
Cc1cc(-c2noc(COc3c(F)c(F)cc(F)c3F)n2)c2ccccc2n1 | x | -21
Cc1oc2c(F)c(F)c(F)c(F)c2c1C(=O)NC1CCCCCC1 | x | 5
O=C1c2ccccc2C(=O)N1CCCN1CCN(c2nccc(C(F)(F)F)n2)CC1 | -1.2 | x
COc1ccc(Cl)cc1NC(=O)C(C)Oc1ccc(NC(=O)c2ccco2)cc1 (stereo not drawn) | x | -16
CCCn1c(=O)c2ccccc2n2c(=S)[nH]nc12 | x | -14
CN1C(=O)c2ccccc2C(C(=O)NC2CC2)C1c1cn(C)c2ccccc12 (stereo not drawn) | -1.8 | 3
COc1ccc(/C=C2\SC(=S)N(CCCCCC(=O)Nc3ccccc3C(=O)O)C2=O)cc1 | -2.7 | x
Cc1ccc(NC(=O)Cn2c(SCc3cccc(C(F)(F)F)c3)nc3cccnc32)cc1C | 0.6 | -6
COc1cccc2cc(C(=O)NCCN(C)C)c(=O)oc12 | -0.5 | 13
COc1ccc(S(=O)(=O)Nc2ccccc2Oc2ccc(Cl)cc2Cl)cc1OC | -1.2 | x
CC1CC(C)CN(C(=O)C2=COCCO2)C1 (stereo not drawn) | x | -2
COc1ccc(/C=C2\C(=O)N(c3ccc(Cl)c(C(=O)O)c3)N=C2C)cc1Br | 4.6 | x
CN=C1S/C(=C\c2cn(CC(=O)O)c3ccccc23)C(=O)N1C | -1.4 | 15
Clc1cccc(-n2c(SCC3CC3)nnc2C2CC2)c1 | 0.0 | x
COc1ccc(-c2ccnc(SCc3cccc([N+](=O)[O-])c3)n2)cc1 | -3.7 | x
Cc1ccc2c(c1)-c1c(cnn1CC(=O)N1CCc3ccccc31)CO2 | x | -22
CSc1cc(C(C)(C)C)nn1S(=O)(=O)c1ccc(Cl)cc1 | -2.5 | x
C=C(C)c1cccc(C(C)(C)NC(=O)NC23CC4CC(CC(C4)C2)C3)c1 | 1.9 | 6
CCCC1c2ccsc2CCN1C(=S)Nc1ccc(Cl)cc1Cl (stereo not drawn) | -0.9 | x
CNc1ccc2nnc(CCNC(=O)c3ccccc3)n2n1 | -0.8 | 4
Cc1cc(C)n2nc(SCCC(=O)NCc3c(F)cc(F)cc3F)nc2n1 | 1.1 | 8
CN(CC(=O)Nc1ccccc1N1CCOCC1)Cc1ccc(Cl)cc1 | x | 7
CC(=O)Nc1nnc(SCc2cc(=O)n3ccsc3n2)s1 | x | 7
O=C(CSCC(=O)c1ccc(-c2ccccc2)cc1)Nc1ccc2ccccc2c1 | 3.2 | -3
Cn1c(/N=C(\N)c2ccccc2)nc2ccccc21 | x | 9
C#CCn1c(C2CC(=O)N(c3cccc(C(F)(F)F)c3)C2)nc2ccccc21 (stereo not drawn) | x | -7
CCCC(C(=O)NC1CCCC1)N(C(=O)Cn1nnc(-c2ccc(C)o2)n1)C1CCCC1 (stereo not drawn) | 0.5 | -2

# 3 compounds from above, arranged by SMILES length, high to low:
Structure | MgrA-DNA mod | S aureus helic
O=C(Nc1c(-c2ccccc2)nc2ccccn12)C1CCCCC1 | x | 19
Clc1cccc(-n2c(SCC3CC3)nnc2C2CC2)c1 | 0.0 | x
Cc1cc2oc(=O)cc(C)c2cc1N | x | -10

# Quoted from the listing.
# O=C(NC1CCCCC1)c1cc(-c2ccc(Cl)cc2)n[nH]1 | S aureus helic = -26
# COC(=O)C1=C(C)Nc2c(c(=O)n(C)c(=O)n2C)C1c1ccc(Br)cc1 (stereo not drawn) | S aureus helic = 8
# O=C(c1ccccc1)C12CC3CC(CC(C3)C1)C2 | S aureus helic = 7
